Autofluor counter = compound fluorescence in toxin protease inhibitor counterscreen; compound autofluorescence counterscreen, microsphere flow cytometry; stronger effect = higher value; fluorescence intensity (concentration not given with the values); 360,000 tested, 3.1% active; AID 624483;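 active means at least 3 SD above the mean of all compounds, about 16000 in these data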;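 further: 100 nL of 1 mM stock went into each well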
Active calls of the source: *. Not all compounds are listed; count on the stated rates, not on these rows.

SMILES	Autofluor counter
c1csc(-c2ccc3nncn3c2)c1	3010
COC(=O)[C@]12CCCCC=C1N(CCC1=CCCCC1)C(=O)[C@H](CC(=O)N1CCCC1)C2	5710
CCOC(=O)N1C(=O)C[C@](Sc2ccc(C)cc2)(C(=O)OC)[C@H]1c1ccccc1	5394
C[C@H]1CN([C@@H](C)CO)C(=O)CCCn2nncc2CO[C@H]1CN(C)S(=O)(=O)c1cccs1	2773
CCOC(=O)CN(c1sc(C)c(C)c1C(=O)OCC)S(=O)(=O)c1ccc(C)cc1	3704
Cn1cc(-c2cnc3c(NC=O)cc(-c4cccc(C(F)(F)F)c4)cn23)cn1	4001
C[C@@H]1CN([C@H](C)CO)S(=O)(=O)c2ccc(Br)cc2O[C@@H]1CN(C)C(=O)CN1CCOCC1	4430
NS(=O)(=O)c1ccc(NCc2cnc3ccccc3n2)cc1	3492
COc1ccc(-c2cc(NC=O)c3ncc(-c4cccc(C(=O)NCCN(C)C)c4)n3c2)cc1	3894
CC(C)(C)Cc1c(-c2cccc(Br)c2)nc2ccc(Cl)cn12	5239
CN1CCN(C(=O)COc2ccc(S(=O)(=O)Nc3ccc(Cl)cc3)cc2)CC1	3783
C[C@@H]1CN([C@H](C)CO)C(=O)CCCn2cc(nn2)CO[C@H]1CN(C)C(=O)Nc1cccc2ccccc12	3888
Cc1ccc([C@@H]2CC(=O)[C@@H]3CN(S(=O)(=O)c4ccc(C)cc4)[C@H](c4ccccc4F)C[C@@H]3N2S(=O)(=O)c2ccc(Cl)cc2)cc1	5786
Cc1ccc(CSC2=NCCN2S(=O)(=O)c2ccc(C)cc2)cc1	3649
Cc1ccccc1-c1cc2nc(Oc3cccc(F)c3)n(C)c(=O)c2s1	3548
CCCC(=O)N1CCCC1(C)C(=O)Nc1ccc(OC(F)F)cc1 (stereo unspecified)	3651
Nc1ncnc(N)c1NC(=O)c1ccc(OCc2ccccc2)cc1	3453
O=C(c1ccco1)N(Cc1cccnc1)C(c1ccccc1)c1nc2ccccc2[nH]1 (stereo unspecified)	5840
COc1ccc(CNC(=O)COC(=O)c2cc(C)oc2C)cc1	4124
CCCS(=O)(=O)NC(=O)C1(C)CCN(C(=O)COc2ccc(Cl)cc2Cl)C1 (stereo unspecified)	3920
Cc1c(C(=O)NCc2ccccc2C(F)(F)F)sc(=O)n1Cc1ccc(S(=O)(=O)N(C)C)cc1	5548
CC1(C(=O)Nc2ccc(F)c(Cl)c2)Cc2c(-c3cccc(C(N)=O)c3)ccnc2O1 (stereo unspecified)	3936
C=CCN1C(c2cccc(C(F)(F)F)c2)=CS/C1=C(\C#N)c1nnc(N2CCOCC2)n1-c1ccccc1	3863
CC(=O)N1c2ccc(S(=O)(=O)N3CCCC(C(=O)Nc4ccc(C)cc4)C3)cc2CC1C (stereo unspecified)	5677
COc1ccccc1N(C(C)=O)C1=C(Cl)C(=O)c2ccccc2C1=O	3764
O=C(Cn1nnc(-c2ccc(Cl)cc2)n1)NC(=O)NC1CCCC1	4171
C[C@H](O)[C@@H]1C(=O)N2CCc3c([nH]c4ccccc34)[C@@H]2C[C@@H]1N(C)C(=O)Nc1ccc(F)cc1	3795
Cc1cccc(C)c1NC(=O)CN1CCN(C/C=C/c2ccccc2)CC1	4619
CC(C)(C)Cc1c(-c2ccc(F)cc2)nc2ccc(Br)cn12	3848
Cc1ccc(C)c2c1CCCC2=O	3084
Cc1ccc(S(=O)(=O)NC(=O)C2(C)CCN2C(=O)c2ccccc2CCc2ccccc2)nc1 (stereo unspecified)	3402
O=C1[C@H]2[C@@H](c3ccc(C(F)(F)F)cc3)N[C@]3(CCCN(Cc4ccco4)C3=O)[C@H]2C(=O)N1Cc1ccccc1	3306
OC(c1cc(Cl)cc(Cl)c1)c1ncc(-c2ccccc2F)[nH]1 (stereo unspecified)	3700
COCOCCn1cc(CN2CCS(=O)(=O)N(Cc3ccc(-c4ccncc4)cc3)C(C(C)C)C2=O)nn1 (stereo unspecified)	3559
COc1cccc(CNc2nc(NCc3cccs3)nc3ccsc23)c1	3845
Cc1nc2ccc(NC(=O)c3ccccc3)cc2c(=O)n1Cc1ccc(F)cc1	3887
Cc1cn([C@H]2C[C@H](O)[C@@H](CNC(=O)[C@@H]3CCCN3Cc3ccccc3)O2)c(=O)[nH]c1=O	3742
CN(C)c1ccc(-c2ccnc3c2CC(C)(C(=O)Nc2cccc(OC(F)(F)F)c2)O3)cc1 (stereo unspecified)	3835
CN(C)CCCNc1nc2cc(-c3ccn[nH]3)sc2c(=O)n1C	3501
CN(C)C1CN(Cc2cn(Cc3ccc(F)cc3)nn2)S(=O)(=O)C1 (stereo unspecified)	5467
Cn1nccc1-c1coc2c(C(=O)NCC3CCOCC3)cccc12	3847
CC(C)CC1NC(=O)c2cccnc2-n2c1nc1cc(F)c(F)cc1c2=O (stereo unspecified)	2874
c1ccc(COc2cccc(-c3cc4nc(NCCCn5ccnc5)ccn4n3)c2)cc1	3963
CCOC(=O)[C@]12CCC=C1N(Cc1cccc3ccccc13)C(=O)[C@H](CC(=O)NCc1ccccc1)C2	5861
COc1ccc(C(=O)N/C(=C\c2ccc(Cl)cc2)C(=O)NCCN2CCOCC2)cc1	3041
COc1cccc(C(O)c2ncc(-c3cccc4ccccc34)[nH]2)c1 (stereo unspecified)	3356
COc1ccc(-c2noc(CN(C)C(=O)CCCN3C(=O)[C@H]4CC=CC[C@H]4C3=O)n2)cc1	3919
Cc1cccc(C)c1-n1nnnc1C(c1cccc2ccccc12)N1CCN(C/C=C/c2ccccc2)CC1 (stereo unspecified)	5739
CCCC(=O)N1CCC1(C)C(=O)Nc1ccc2nc(C)ccc2c1 (stereo unspecified)	3709
COCCN1C[C@@H](CO)O[C@@H](n2cnc3c(NCc4ccc(F)cc4)ncnc32)C1	2961

Other structures follow.
SMILES	Autofluor counter
CCCc1nc2c(C)cc(Br)cn2c1Cc1ccsc1	6089
CC1(C2CC2)NC(=O)N(CC(=O)N2CCN(c3ccccc3F)CC2)C1=O (stereo unspecified)	2859
CS(=O)(=O)N1CCCCC1c1cc(C(=O)Nc2cccc(C#N)c2)no1 (stereo unspecified)	2969
Cc1cccc(NC(=O)CSc2nncn2N)c1C	3739
Cc1ccc(-c2nc3c(Cl)cc(C(F)(F)F)cn3c2Cc2cccc(Cl)c2)cc1	5354
CC(=O)c1cc2c(cc1NC(=O)CSc1nnc(C3CC3)n1C)OCO2	3911
COc1cc(C(=O)N2CCCCC2c2cc(C(=O)Nc3ccccc3Cl)no2)cc(OC)c1C (stereo unspecified)	3948
O=C1NC[C@H](CCCCN2C[C@H](Cc3ccc(O)cc3)N(CCc3ccc(O)cc3)C(=O)C2=O)N(CCc2ccccc2)C1=O	5885
CCOC(=O)[C@]12CCCC=C1N(Cc1ccco1)C(=O)[C@H](CC(=O)NCc1ccccc1)C2	5215
c1csc(CNc2ccn3nc(-c4ccc(OCCN5CCOCC5)cc4)cc3n2)c1	3702
Nc1nc(Cl)nc2c1ncn2C1CCC(CO)O1 (stereo unspecified)	4043
CCOC(=O)C(C(=O)OCC)C(=O)c1cccc2ccc3ccccc3c12	2758
COc1ccc(-c2ccc(C(=O)Nc3cccc(C(F)(F)F)c3)c3occc23)c(C)c1	3927
COc1ccc(-n2nnnc2C(C2CC2)N2CCC3(CC2)C(=O)NCN3c2ccccc2)cc1 (stereo unspecified)	5956
CC(C)COC(=O)N1CCCCC1c1cc(C(=O)NCc2ccc(F)cc2)no1 (stereo unspecified)	3424
COc1cc(OC)c(NC(=O)CC2SC(N)=NC2=O)cc1Cl (stereo unspecified)	3583
Cc1cc(C)nc(Nc2nc(C(N)Cc3ccc(C(F)(F)F)cc3)cs2)n1 (stereo unspecified)	3765
O=C1c2ccccc2C(c2nnnn2-c2ccc3c(c2)OCCO3)N1Cc1cccnc1 (stereo unspecified)	5465
O=C(Nc1ccc2c(c1)OCO2)c1cc(C2CCCCN2C(=O)CCCc2ccccc2)on1 (stereo unspecified)	3678
COc1ccc(CN2C(=O)c3ccccc3C2c2nnnn2-c2ccc3c(c2)OCCO3)cc1OC (stereo unspecified)	5702
CCc1ccc([C@@H]2C[C@H]3[C@@H](CN2S(=O)(=O)c2ccc(C)cc2)C(=O)C[C@@H](c2ccc(Cl)cc2)N3S(=O)(=O)c2ccc(C)cc2)cc1	5937
Brc1cccc(-c2nc3ccc(Br)cn3c2Cc2ccsc2)c1	6551
O=C(NCc1ccc(F)cc1)c1cc(C2CCCCN2S(=O)(=O)c2ccc(F)cc2F)on1 (stereo unspecified)	3174
Cc1ccc(CNC(=O)/C=C/[C@H]2O[C@@H](n3cc(C)c(=O)[nH]c3=O)C[C@@H]2O)o1	4405
Nc1ccc(-c2cc(NC=O)c3ncc(-c4cccc(C(F)(F)F)c4)n3c2)cn1	3279
COc1ccc(/C=C/c2cc(O)cc(O[C@@H]3O[C@H](CO)[C@@H](O)[C@H](O)[C@H]3O)c2)cc1O	6058
CC(C)c1ccc(NC(=O)Nc2nc(C(N)C(C)C)cs2)cc1 (stereo unspecified)	3765
Cc1ccc(CNC(=O)OC2CC3CC2[C@H]2CCCCN2C3=O)cc1 (stereo partly specified)	4187
C[C@H](CO)N1C[C@H](C)[C@H](CN(C)S(=O)(=O)c2ccc3c(c2)OCCCO3)OCc2cnnn2CCCC1=O	2834
C[C@H](CO)N1C[C@H](C)[C@@H](CN(C)S(=O)(=O)c2ccc3ccccc3c2)OCc2cn(nn2)CCCC1=O	2905
COC(=O)[C@@]1(Cc2ccc(OC)cc2)[C@H]2c3cc(C(=O)N4CCCC4)n(Cc4ccc(OC(F)(F)F)cc4)c3C[C@H]2CN1C(=O)c1ccccc1	5542
Cc1nc2c(OCCOc3ccccc3)cccn2c1N(C)C(=O)CCC1CCCC1	2949
COc1ccc([C@H]2C[C@@H](O)[C@H](n3cc(COC(=O)c4ccccc4)nn3)CN2Cc2cccs2)cc1	3570
COc1cccc(-c2cc3nc(NCc4ccccc4OC)n(C)c(=O)c3s2)c1	2861
CCc1cc(-c2nnn(CCC3COCCO3)c2CC)ccc1-c1cn(Cc2ccccc2)nn1 (stereo unspecified)	3011
CN(C)CCN(C)C1CN(Cc2ccccc2)S(=O)(=O)C1 (stereo unspecified)	6032
COc1cc(NC(C)CCCN)c2nc(C)ccc2c1Oc1ccc(F)cc1 (stereo unspecified)	4422
C[C@H](NC(=O)c1ncn2c1C(=O)N(C)CC2)C(=O)OC(C)(C)C	3329
O=C1CCCC(=O)N1CCCCCCN1C(=O)CCCC1=O	3442
COc1cccc(CNC(=O)[C@@H]2CCCN2C(=O)[C@@H]2CCCN2C(=O)c2c(F)cccc2F)c1	4166

Sorted by length of the SMILES (ascending): part of the list above
SMILES	Autofluor counter
O=C1CCCC(=O)N1CCCCCCN1C(=O)CCCC1=O	3442
COc1cc(NC(C)CCCN)c2nc(C)ccc2c1Oc1ccc(F)cc1 (stereo unspecified)	4422
Cc1nc2c(OCCOc3ccccc3)cccn2c1N(C)C(=O)CCC1CCCC1	2949
C[C@H](NC(=O)c1ncn2c1C(=O)N(C)CC2)C(=O)OC(C)(C)C	3329
CCc1cc(-c2nnn(CCC3COCCO3)c2CC)ccc1-c1cn(Cc2ccccc2)nn1 (stereo unspecified)	3011
COc1cccc(CNC(=O)[C@@H]2CCCN2C(=O)[C@@H]2CCCN2C(=O)c2c(F)cccc2F)c1	4166
COc1ccc([C@H]2C[C@@H](O)[C@H](n3cc(COC(=O)c4ccccc4)nn3)CN2Cc2cccs2)cc1	3570

Returning to the listing, repeating the three entries before the break.
SMILES	Autofluor counter
C[C@H](NC(=O)c1ncn2c1C(=O)N(C)CC2)C(=O)OC(C)(C)C	3329
O=C1CCCC(=O)N1CCCCCCN1C(=O)CCCC1=O	3442
COc1cccc(CNC(=O)[C@@H]2CCCN2C(=O)[C@@H]2CCCN2C(=O)c2c(F)cccc2F)c1	4166
CCCCNC(=O)C1(C)CCCCN1CC(=O)c1ccc(OC)cc1 (stereo unspecified)	4758
CC1(C(=O)NS(=O)(=O)c2ccccc2Cl)CCN1C(=O)c1ccccc1 (stereo unspecified)	2738
COc1cc(OC)cc(C2=Cc3ccccc3C(CC(C)=O)N2c2ccc(C#CCCO)cc2)c1 (stereo unspecified)	5158
O=C(O)c1cscc1Cc1cccs1	3643
CC1Cc2[nH]c(=S)[nH]c(=O)c2C(c2ccc(F)cc2)O1 (stereo unspecified)	6093
Cc1ccc(C(=O)OCC(=O)Nc2cccc(Br)c2)s1	3715
COc1ccc(C(=O)NCCCC2CCCC2)cc1OC1CCN(C(C)C)CC1	3987
COC(=O)[C@]12CCCCC=C1N(Cc1ccccc1)C(=O)[C@H](CC(=O)NCC13CC4CC(CC(C4)C1)C3)C2	6075
CN1OC[C@@H]2CN(C(=O)CCc3ccccc3)[C@H](c3ccc(-n4ccnc4)cc3)C[C@@H]21	5859
C[N+](C)(C)CCN1C(=O)c2ccccc2C1=O	5663

The closing 2 entries of the part before open the next one:
SMILES	Autofluor counter
CN1OC[C@@H]2CN(C(=O)CCc3ccccc3)[C@H](c3ccc(-n4ccnc4)cc3)C[C@@H]21	5859
C[N+](C)(C)CCN1C(=O)c2ccccc2C1=O	5663
COc1cccc(CN2CC(C(=O)NCCc3cn4cccnc4n3)CCC2=O)c1 (stereo unspecified)	3500
CCN1C(=O)CSC1=Nc1ccc(C(=O)OC)cc1	3514
CCCCC[C@@H]1[C@@H]2C(=C(OCC)C[C@@H]3C(=O)N(c4ccccc4)C(=O)[C@H]23)[C@H](c2ccccc2)N1S(=O)(=O)c1ccc(C)cc1	4693
COc1ccc(C2=Nc3ccccc3NC(=O)C2N(C(=O)c2cnc(C)cn2)c2ccc(N3CCOCC3)cc2)cc1 (stereo unspecified)	5314
CC(C)NC(=O)c1cc(C2CCCCN2C(=O)CCCc2ccccc2)on1 (stereo unspecified)	3739
CC(O)(c1ccc(F)c(F)c1)c1nc(-c2cccc(F)c2)cs1 (stereo unspecified)	3436
CN(C)CCNc1ncnc2c1ncn2[C@H]1CN(Cc2ccc3c(c2)OCO3)C[C@@H](CO)O1	2863
Cc1ncc(CO)n1Cc1ccc(Cl)cc1	2759
